# Bioassay records as filed in PubChem.
# VDR inh – Inhibitors of the vitamin D receptor (VDR): qHTS; 400,000 compounds, 0.93% hits; Potency, µM, inactives show max response, negative = inhibition, hits mostly inhibitors; AID 504847, 2011; Vitamin D3 receptor (Homo sapiens), P11473; VDR-SRC2-3 peptide fluorescence polarization, 2 h; active = well fitted inhibition curve with a large enough effect; inconclusive = small, poorly fitted or top-dose-only effect, or another doubt; inactive = no such curve, though single readings can be large or run the other way; also: series mostly up to about 120 µM
# Target sequence (P11473 whole entry, looked up): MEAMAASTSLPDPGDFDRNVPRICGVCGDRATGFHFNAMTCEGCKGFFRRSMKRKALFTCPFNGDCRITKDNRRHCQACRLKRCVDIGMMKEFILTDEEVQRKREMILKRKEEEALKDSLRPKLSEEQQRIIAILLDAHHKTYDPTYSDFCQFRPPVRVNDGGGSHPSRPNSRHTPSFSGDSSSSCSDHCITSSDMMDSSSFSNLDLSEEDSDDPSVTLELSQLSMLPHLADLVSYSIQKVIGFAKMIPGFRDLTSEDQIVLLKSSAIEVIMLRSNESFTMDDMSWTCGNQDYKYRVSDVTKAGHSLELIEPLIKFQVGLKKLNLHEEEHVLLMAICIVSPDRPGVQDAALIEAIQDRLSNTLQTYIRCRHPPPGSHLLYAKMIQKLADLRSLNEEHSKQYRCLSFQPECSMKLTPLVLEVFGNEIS
#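 The screen uses fluorescence polarization to detect compounds that interfere with recruitment of the SRC2-3 coactivator peptide to VDR; plates are read after 2 h at room temperature.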
# The depositor's hits bear a star; ? = inconclusive; & = joins results of further samples; [ ] = another dose, or the depositor's remark. % is scaled to controls: 0 for no effect and ±100 for the full control effect; potency is read from the fitted curve at half-maximal effect. An excerpt (hit frequency here may not be typical).
VDR inh	canonical_smiles
-4%	CCN1C(=O)[C@H]2[C@@H](c3ccc(-c4ccc5c(c4)OCO5)cc3)N[C@@](Cc3ccccc3)(C(=O)OC)[C@H]2C1=O
-1%	CN1/C(=C\C(=O)CSc2nnc(NCc3ccccc3)s2)C(C)(C)c2ccccc21
9%	Cc1cc(C)c(OCCCCN(C)Cc2ccccc2)c(C)c1
14%	Cc1sc(NC(=O)CN2CCCC2)nc1-c1ccc2c(c1)CCN2C(=O)c1cccc(F)c1
-27%	Cc1cc(C(=O)CN2CCCC2)c(C)n1-c1ccc(Cl)cc1
2%	CCOc1ccc(NS(=O)(=O)c2cc(C(=O)N3CCN(C(C)=O)CC3)ccc2Cl)cc1
1%	COc1ccc(Cn2ccc3nc(C)c(C(=O)Nc4ccc(OC)c(OC)c4)cc3c2=O)cc1
3%	Cc1ccc(-c2cnc3cc(C)nn3c2)cc1
0%	COc1cccc(-c2ccc3c(c2)C2CC3CCN2C(C)=O)c1 (configuration not stated)
?	COc1ccc(-c2cccc([C@H]3[C@@H]4C=CC[C@@H](C)[C@@H]4C(=O)N3Cc3ccccc3)c2)cc1
-18%	COC(=O)c1ccc(COc2ccccc2/C=C(\C#N)C(=O)Nc2ccccc2C)cc1
-10%	C/C(N)=C(/C#N)C(=O)COC(=O)COc1ccc(Cl)cc1C
?	Oc1c(C(c2ccccn2)N2CCCCC2)cc(Cl)c2cccnc12 (configuration not stated)
13%	C/C(=N/OCC(=O)Nc1ccccc1)c1cccs1
-3%	COc1ccc2c(Sc3ccccc3)c(C(=O)NCC(C)c3ccccc3)[nH]c2c1 (configuration not stated)
5%	c1sc2[n+](c1C13CC4CC(CC(C4)C1)C3)CCS2
-13%	CCOC(=O)[C@H]1[C@H]2COc3ccc(Cl)cc3[C@@H]2N2C(=O)CN(Cc3ccco3)C(=O)[C@@]12C
-27%	Cc1ccccc1C(=O)NC1CCN(CC(=O)Nc2ccc3c(c2)OCCO3)CC1
-2%	COc1cccc(C(=O)CSc2nnnn2C2CCCCC2)c1
-7%	CCc1cccc(NC(=O)COc2ccccc2)c1
-4%	COc1ccc([C@@H](C)C(=O)c2ccc(O)cc2O)cc1
10%	Cc1ccc(NC(=O)Cn2nc(C)c([N+](=O)[O-])c2C)cc1C
-8%	N/C(=C/C(=O)c1ccccc1O)C(F)(F)F
-25%	COc1ccc(-c2ccoc2)cc1[C@H]1[C@H]2C=CC[C@@H](C)[C@@H]2C(=O)N1Cc1ccccc1
8%	CCOc1ccccc1NC(=O)CCSc1nc2n[nH]c(C)c2c(=N)n1-c1ccccc1Cl
-8%	CCn1ccnc1CN(C)Cc1nc(CCC(C)C)no1
-26%	CC(=O)Nc1c(-c2ccccc2)c2cc(Br)ccc2[nH]c1=O
9%	O=S(=O)(NCCc1nnc2ccc(SCc3cccnc3)nn12)c1ccccc1
-3%	Cc1c(Cl)cccc1NC(=O)CCCN1C(=O)c2cccnc2C1=O
-18%	N#C/C(=N\Nc1cccc(F)c1)C(=O)C1CC1
18%	CCOC(=O)N1CCC(N2C(=O)c3ccc(C(=O)NCCOC)cc3C2=O)CC1
3%	O=C(O)CSc1nnc(SCc2cccc3ccccc23)s1
-2%	COc1cc(C2C(C#N)=C(N)OC3=C2C(=O)CC(C)(C)C3)cc([N+](=O)[O-])c1O (configuration not stated)
6%	COc1cc2c(cc1OC)C(C)N(C(=O)CCc1c[nH]c3ccccc13)CC2 (configuration not stated)
12%	Cc1ccc(SCC(=O)Nc2ccc(N3CCN(C)CC3)c(F)c2)c(C)c1
-5%	NC1=NC(c2cc(F)cc(F)c2)n2c(nc3ccccc32)N1 (configuration not stated)
3%	CC(=O)c1cccc(NC(=O)CSc2nc(=O)n(Cc3cccnc3)c3c2CCC3)c1
2%	O=C(COc1ccc2c(-c3ccccc3)cc(=O)oc2c1)Nc1ccc(CCO)cc1
-2%	O=c1[nH]c(COc2ccc(Cl)cc2Br)nc2ccccc12
-2%	CCOc1nc(NC(=O)NC(=O)c2ccccc2)nc(-c2ccccc2)n1
-10%	Cc1cccc(N=C2NN=C(c3c(C)[nH]c4ccccc34)CS2)c1
-9%	CC(NC(=O)Cc1ccc(F)cc1)C(c1cccs1)N1CCN(C)CC1 (configuration not stated)
9%	CC(C)C(NC(=O)c1ccccc1)C(=O)NCC(c1ccccc1)N(C)C (configuration not stated)
3%	O=C(C1CC2C=CC1C2)N1CCN(c2ccccc2)CC1 (configuration not stated)
-14%	Cc1ccc(-c2nnc(Nc3ccc(C(=O)N(C)C)cc3)c3ccccc23)cc1S(=O)(=O)NCC1CCCO1 (configuration not stated)
?	C=CCOC1=CS(=O)(=O)N(Cc2ccc(Br)cc2)c2ccc(Br)cc21
-15%	CCCN(C(=O)CSc1ccccc1C(=O)O)C1CCS(=O)(=O)C1 (configuration not stated)
6%	COc1ccc(Cn2c(SCC(N)=O)nc3c(sc4ccccc43)c2=O)cc1
-9%	CC1(C)CC(n2c(=S)[nH]c3ccccc3c2=O)CCO1 (configuration not stated)
-10%	CCCCN(CCCNC(=O)C1CCN(S(=O)(=O)CC)CC1)c1ccccc1

# Next part.
VDR inh	canonical_smiles
6%	O=[N+]([O-])c1ccc(OCCN2CCNCC2)cc1
6%	Cn1nnnc1NC(=O)c1ccccc1Cl
9%	CCCC[C@@H]1CNC(=S)N1CC1CCCCC1
16%	O=c1[nH]c(CN2CCN(c3ccccc3)CC2)nc2ccccc12
1%	CN(C)C(=S)Nc1ccc(S(=O)(=O)N2CCCCC2)cc1
2%	Cc1ccccc1C(=O)Nc1nnc(SCC(=O)NCc2ccco2)s1
-7%	Cc1cccc(N2CCN(C(=O)c3ccc4nccnc4c3)CC2C)c1 (configuration not stated)
6%	CCOC(=O)c1ccc2[nH]c(CSc3nnc(-c4cccc(F)c4)n3C)cc(=O)c2c1
20µM*	O=C(/C=C/c1cccc([N+](=O)[O-])c1)c1ccccc1
5%	COc1ccc(Oc2nc3c(c(=O)n(C)c(=O)n3C)n2Cc2ccc(Cl)cc2Cl)cc1
23%	COC(=O)CSc1nc(-c2ccc(C)cc2)c2c(c1C#N)CCCC2
11%	COc1cc(-c2cccs2)cc(=O)c2c(C)oc(C)c12
4%	Cc1ccc(S(=O)(=O)Nc2ccc(C(=O)NCCCN3CCOCC3)cc2)cc1[N+](=O)[O-]
-13%	CCCCCCCCCC(=O)N/N=C(\C)c1cccnc1
-8%	O=C(Cn1cnnn1)Nc1ccccc1Cc1ccccc1
13%	OCCC1CN(Cc2cccn2-c2cccnc2)CCN1C1CCCCC1 (configuration not stated)
-5%	CCOC(=O)CC(NC(=O)c1cccs1)c1ccc(OCC)cc1 (configuration not stated)
11%	CSc1nc(C)c2cc(C)oc2n1
-3%	NS(=O)(=O)c1ccccc1
-2%	CC(C)NS(=O)(=O)c1cc(C(=O)O)ccc1Cl
-8%	O=C(CN1CCN(c2ccccn2)CC1)Nc1ccccc1C(=O)Nc1ccccc1
-3%	O=S(Cc1ccccc1)CC(O)(c1ccc(Cl)cc1)c1ccc(Cl)cc1 (configuration not stated)
4%	Cn1c(=O)c2c(nc(SCC(=O)OCc3ccccc3)n2C)n(C)c1=O
-2%	CCOC(=O)N1CCN(C(=O)C(=O)NNC(=O)COc2ccc(Cl)c(C)c2)CC1
5%	Cc1cccc(NC(=O)c2cc(S(=O)(=O)NCc3ccc4c(c3)OCO4)ccc2F)c1C

# Reformatted bar-delimited: part of the list above
structure | VDR inh
O=C(/C=C/c1cccc([N+](=O)[O-])c1)c1ccccc1 | 20µM*
COc1ccc(Oc2nc3c(c(=O)n(C)c(=O)n3C)n2Cc2ccc(Cl)cc2Cl)cc1 | 5%
COC(=O)CSc1nc(-c2ccc(C)cc2)c2c(c1C#N)CCCC2 | 23%
COc1cc(-c2cccs2)cc(=O)c2c(C)oc(C)c12 | 11%
Cc1ccc(S(=O)(=O)Nc2ccc(C(=O)NCCCN3CCOCC3)cc2)cc1[N+](=O)[O-] | 4%
CCCCCCCCCC(=O)N/N=C(\C)c1cccnc1 | -13%
O=C(Cn1cnnn1)Nc1ccccc1Cc1ccccc1 | -8%
OCCC1CN(Cc2cccn2-c2cccnc2)CCN1C1CCCCC1 (configuration not stated) | 13%
CCOC(=O)CC(NC(=O)c1cccs1)c1ccc(OCC)cc1 (configuration not stated) | -5%
CSc1nc(C)c2cc(C)oc2n1 | 11%
NS(=O)(=O)c1ccccc1 | -3%
CC(C)NS(=O)(=O)c1cc(C(=O)O)ccc1Cl | -2%
O=C(CN1CCN(c2ccccn2)CC1)Nc1ccccc1C(=O)Nc1ccccc1 | -8%
O=S(Cc1ccccc1)CC(O)(c1ccc(Cl)cc1)c1ccc(Cl)cc1 (configuration not stated) | -3%
Cn1c(=O)c2c(nc(SCC(=O)OCc3ccccc3)n2C)n(C)c1=O | 4%
CCOC(=O)N1CCN(C(=O)C(=O)NNC(=O)COc2ccc(Cl)c(C)c2)CC1 | -2%

# Other structures follow:
VDR inh	canonical_smiles
-4%	CC(=O)OC1OCCOC1NC(=S)NCc1ccco1 (configuration not stated)
0%	CCc1ccccc1NC(=O)NNC(=O)c1ccc2ccccc2c1O
-25%	Cc1ccc(S(=O)(=O)Nc2nnc(CC(C)(C)C)s2)cc1
4%	COc1ccc(CNCCCSc2nnnn2-c2ccccc2)cc1
-9%&3%	CCn1ccnc1C(O)c1ccccc1OC (configuration not stated)
-6%	COc1cc2c(cc1NC(=O)CN1CCN(S(=O)(=O)c3ccc(F)cc3)CC1)oc1ccccc12
-14%	CC(=O)c1sc(NC(=O)CCCOc2ccccc2C)nc1C
12%	CCN(CC)C(=S)SCc1csc(CC(=O)Nc2ccccc2C)n1
-25%	Cc1cc(NC(=O)CC(C)C)c(=O)n(Cc2c(F)cccc2Cl)c1
10%	CC(Sc1nnc(CC(=O)Nc2ccccc2F)n1C)C(=O)Nc1nccs1 (configuration not stated)
-4%	Cc1ccccc1-n1nc(-c2cccnc2)cc1C(=O)NN
-6%	CCOc1ccccc1C(=O)Nc1ccc2nc3n(c(=O)c2c1)CCCCC3
-8%	C/C(=C\C(=O)c1ccc(C)cc1)NCc1ccc(F)cc1
-13%	CCCC(=O)Nc1sc2c(c1C(=O)Nc1ccccn1)CCCC2
-1%	COc1ccc(/C=N/NC(=O)CCCOc2ccc(Cl)cc2Cl)cc1[N+](=O)[O-]
-3%	CSc1ccc(S(=O)(=O)NCCOc2ccccc2C)cc1
-1%	COc1cc(OC)c(C(=O)NCc2nc(-c3ccccc3)no2)cc1OC
40µM*	Cc1ccccc1NC(=O)c1nc(S(C)(=O)=O)ncc1Cl
?	O/N=C/c1cc(Br)ccc1OCc1ccc(F)cc1
-18%	CCCn1nnnc1SCC(=O)Nc1nnc(CC)s1
-8%	O=[N+]([O-])c1cccc(S(=O)(=O)[N-]c2nc3ccccc3nc2-n2cc[n+](Cc3ccccc3)c2)c1
-1%	CC(=O)Nc1nonc1-c1nnc(SCC(=O)Nc2cc(C)cc(C)c2)n1-c1ccccc1
55%[activator]	C#CCOCCOCCOCCNc1nc(N2CCN(C(=O)CCCCCCCCCCNC(=O)[C@H](CCCCN)n3cc(C[C@@H](C)CC)nn3)CC2)nc(N2CCN(C(=O)CCCCCCCCCCNC(=O)[C@@H]([C@H](C)O)n3cc(C)nn3)CC2)n1
3%	C#CCOCCOCCOCCNc1nc(N2CCN(C(=O)CCCCCCCCCCNC(=O)[C@@H](CCC(=O)O)n3cc(CCCCCN)nn3)CC2)nc(N2CCN(C(=O)CCCCCCCCCCNC(=O)[C@H]([C@@H](C)CC)n3cc(CCCCCN)nn3)CC2)n1
1%	Cc1cccc(C(=O)OCC(=O)c2ccc(CC(=O)N3CCOCC3)s2)c1C

# Taken from above:
# COc1cc(OC)c(C(=O)NCc2nc(-c3ccccc3)no2)cc1OC @ VDR inh: -1%
# C#CCOCCOCCOCCNc1nc(N2CCN(C(=O)CCCCCCCCCCNC(=O)[C@@H](CCC(=O)O)n3cc(CCCCCN)nn3)CC2)nc(N2CCN(C(=O)CCCCCCCCCCNC(=O)[C@H]([C@@H](C)CC)n3cc(CCCCCN)nn3)CC2)n1 @ VDR inh: 3%

# Next records.
VDR inh	canonical_smiles
-3%	O=c1cc(Cl)c(-c2ccccc2)n[nH]1
-7%	C/C(=N\NC(=O)c1cccc(S(=O)(=O)N2CCCC2)c1)c1ccc(OCC(=O)N(C)C)cc1
2%	CCN1CCCC1CNC(=O)C1CCCN(S(=O)(=O)c2cccc3nsnc23)C1 (configuration not stated)
-9%	Cc1ccc(-c2nn(-c3ccccc3)cc2/C=N/NC(=O)c2ccncc2)o1
1%	C[C@@H]1C=C(C(=O)N2CCOCC2)O[C@H](OCc2ccc(CO)cc2)C1
-8%	O=C(O)Cc1ccc(O)c(F)c1
3%	Cc1c(C)c2ccc(OCC(=O)NC(Cc3ccc(Cl)cc3)C(=O)O)cc2oc1=O (configuration not stated)
2%	COc1cc(C(=O)NCCCN2CCCC2=O)ccc1OCc1ccc(Cl)cc1Cl
7%	Cc1ccc(NC(=O)c2ccccc2)s1
15%	Cc1ccc(NC(=S)NCC2CCCO2)cc1C (configuration not stated)
-5%	CC(=O)c1ccc(NS(=O)(=O)c2ccccc2)cc1
-7%	Cc1ccccc1NC(=S)NC(=O)c1cc(-c2ccccc2)nc2ccccc12
4%	O=C(OCc1cn(Cc2ccccc2)nn1)c1ccccc1
-8%	CCOc1cc(C(=O)N/N=C/c2cn(-c3ccccc3)nc2-c2cc3ccccc3o2)cc(OCC)c1OCC
-14%	COc1ccc(N2CCN(C(=O)C3CCCN(S(=O)(=O)c4ccc5c(c4)CCCN5C(C)=O)C3)CC2)cc1 (configuration not stated)
21%	COc1ccc(-n2c(SCC(=O)NCC3CCCO3)nc3c(c2=O)SCC3)cc1OC (configuration not stated)
1%	Clc1cccc(Cl)c1COc1ccccn1
?	O=C(CN1CCc2ccccc21)NC(c1ccccc1)c1ccccc1
2%	CSc1nnc(C)c(=O)n1COC(=O)COc1ccc(Cl)cc1Cl
1%	O=C(NC1CCCCCCC1)c1ccc2c(c1)OCO2
-22%	N#CCCn1c(SCC(=O)Nc2ccc(N3CCOCC3)cc2)nc2ccccc21
-3%	Cc1c(C(=O)c2ccc(F)cc2F)c2ccccn2c1CCC#N
